Assay outcomes deposited in PubChem BioAssay by ICCB-Longwood Screening Facility, Harvard Medical School.
Choline anaer gr = choline-fed anaerobic bacterial growth inhibition. actives 0.2% (n = 55,000). calls only. Gram-negative bacterium anaerobic choline minimal medium, absorbance growth; hits give low values; many inactives read as strong as hits in the columns shown. AID 1963822;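 active means growth z-score on choline under -2 at 7 or 20 h with little or no fall on glycerol, limits in tiers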;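 further: stock transfer was 300 nL into about 50 µL; the organism is E. coli; final concentration not given here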
Choline anaer gr early = second read-out of Choline anaer gr, no call of its own (marks repeat the call); z-score; measured here: choline growth z-score, timepoint 1;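 score of optical density at 7 h as mean of two plates; lower means less growth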
Numbers without * were called inactive; & = joins results of further samples. Some of the compounds tested; count on the stated rates, not on these rows.

Start of the listing, in advance, 4 compounds:
What do the screens show for `CCCCCOc1ccc(C(=O)N(Cc2ccccc2)C2CCS(=O)(=O)C2)cc1` (stereo unspecified)?
Choline anaer gr: inactive; Choline anaer gr early: -0.06

How did CC1CCN(C(=O)c2cc3c(s2)CCC(C(=O)NCCCN2CCOCC2)C3)CC1 (stereo unspecified) do in these assays?
Choline anaer gr: inactive; Choline anaer gr early: 0.05

Results for Fc1ccc(CN2CCCC2c2ccc(Cl)cc2)cc1F (stereo unspecified) ?
Choline anaer gr: inactive; Choline anaer gr early: -0.2

How did Cc1cc(C)n(CCC(=O)N2CCN(Cc3noc4ccccc34)CC2)n1 do in these assays?
Choline anaer gr: inactive; Choline anaer gr early: -0.52

This part in full, from the first entry:
What do the screens show for `CCCCCOc1ccc(C(=O)N(Cc2ccccc2)C2CCS(=O)(=O)C2)cc1` (stereo unspecified)?
Choline anaer gr: inactive; Choline anaer gr early: -0.06

How did CC1CCN(C(=O)c2cc3c(s2)CCC(C(=O)NCCCN2CCOCC2)C3)CC1 (stereo unspecified) do in these assays?
Choline anaer gr: inactive; Choline anaer gr early: 0.05

Results for Fc1ccc(CN2CCCC2c2ccc(Cl)cc2)cc1F (stereo unspecified) ?
Choline anaer gr: inactive; Choline anaer gr early: -0.2

How did Cc1cc(C)n(CCC(=O)N2CCN(Cc3noc4ccccc34)CC2)n1 do in these assays?
Choline anaer gr: inactive; Choline anaer gr early: -0.52

Results for CN1CCN(C(=O)c2nc(-c3ccccc3)n(-c3cccc(Cl)c3)n2)CC1 ?
Choline anaer gr: inactive; Choline anaer gr early: -0.01

How did CCOc1ccc(C(=O)Nc2ccc3c(c2)CCCN3S(=O)(=O)c2ccccc2)cc1OCC do in these assays?
Choline anaer gr: inactive; Choline anaer gr early: 0.22

How did Cc1nc2c(c(Nc3ccc(C(=O)OCC(C)C)cc3)n1)CCC2 do in these assays?
Choline anaer gr: inactive; Choline anaer gr early: 0.77

Results for CCCOc1ccc2c(c1)c(C(=O)N1CCOCC1)c(C)n2-c1ccc(OC)cc1 ?
Choline anaer gr: inactive; Choline anaer gr early: 0.35

How did CCCCNC(=O)Cc1csc(-n2nc(C)cc2C)n1 do in these assays?
Choline anaer gr: inactive; Choline anaer gr early: -0.96

What do the screens show for `CNC(=O)c1cc2c(cn1)[nH]c1ccccc12`?
Choline anaer gr: inactive; Choline anaer gr early: -0.19&-0.37

What do the screens show for `O=C(NC1CC1)c1nc(-c2cccs2)cs1`?
Choline anaer gr: inactive; Choline anaer gr early: -0.56

How did Cc1ccccc1NC(=O)N1CCn2cccc2C1C (stereo unspecified) do in these assays?
Choline anaer gr: inactive; Choline anaer gr early: -0.92

Quoted at random: 3 entries already listed, in no set order.
What do the screens show for `CNC(=O)c1cc2c(cn1)[nH]c1ccccc12`?
Choline anaer gr: inactive; Choline anaer gr early: -0.19&-0.37

Results for CCCOc1ccc2c(c1)c(C(=O)N1CCOCC1)c(C)n2-c1ccc(OC)cc1 ?
Choline anaer gr: inactive; Choline anaer gr early: 0.35

How did Cc1ccccc1NC(=O)N1CCn2cccc2C1C (stereo unspecified) do in these assays?
Choline anaer gr: inactive; Choline anaer gr early: -0.92

Other entries follow:
What do the screens show for `COc1ccc(NC(=O)CCS(=O)(=O)c2cc3c(cc2C)NC(=O)CO3)cc1`?
Choline anaer gr: inactive; Choline anaer gr early: 0.18

What do the screens show for `CCc1ccc(NC(=O)N2CCCC2c2c(C)noc2C)cc1` (stereo unspecified)?
Choline anaer gr: inactive; Choline anaer gr early: -0.09

How did CCOc1ccc(S(=O)(=O)N(C)C)cc1-c1nc(C(C)C)no1 do in these assays?
Choline anaer gr: inactive; Choline anaer gr early: -0.73

What do the screens show for `CC(C)Cn1cc(NC(=O)NCCCN(C)C2CCCCC2)c2ccccc2c1=O`?
Choline anaer gr: inactive; Choline anaer gr early: -0.09

How did CCS(=O)(=O)N1CCN(C(=O)CC2CCN(S(=O)(=O)c3c(C)noc3C)CC2)CC1 do in these assays?
Choline anaer gr: inactive; Choline anaer gr early: 0.39

Results for Cc1ccc(-c2nn(C(C)C(=O)Nc3cccc(C)c3C)c(=O)c3c2CCCC3)cc1 (stereo unspecified) ?
Choline anaer gr: inactive; Choline anaer gr early: -2

How did CCCCCNC(=O)c1sc2ncccc2c1-n1cccc1 do in these assays?
Choline anaer gr: inactive; Choline anaer gr early: -0.46

How did O=C1Nc2ccccc2C12CCN(S(=O)(=O)c1ccc(Br)cc1)C2 (stereo unspecified) do in these assays?
Choline anaer gr: inactive; Choline anaer gr early: -0.33

Results for Cc1ccccc1NC(=O)CN1C(=O)CC(C)Sc2ccccc21 (stereo unspecified) ?
Choline anaer gr: inactive; Choline anaer gr early: 0.09

How did Cc1[nH]nc2c1C(c1cc(F)cc(F)c1)CC(=O)N2 (stereo unspecified) do in these assays?
Choline anaer gr: inactive; Choline anaer gr early: -0.29

How did O=C(NCc1ccc(Br)cc1)c1cccc(Nc2ncc(-c3cccc(F)c3)cn2)c1 do in these assays?
Choline anaer gr: inactive; Choline anaer gr early: 0.58

How did Cc1ccnc(NC(=O)C2CCN(S(=O)(=O)c3c(C)nn(CC(=O)N4CCCC4)c3C)CC2)c1 do in these assays?
Choline anaer gr: inactive; Choline anaer gr early: -0.4

3 compounds out of the list, sorted by formula weight, descending:
Results for CCCOc1ccc2c(c1)c(C(=O)N1CCOCC1)c(C)n2-c1ccc(OC)cc1 ?
Choline anaer gr: inactive; Choline anaer gr early: 0.35

Results for Cc1ccccc1NC(=O)CN1C(=O)CC(C)Sc2ccccc21 (stereo unspecified) ?
Choline anaer gr: inactive; Choline anaer gr early: 0.09

How did CCCCNC(=O)Cc1csc(-n2nc(C)cc2C)n1 do in these assays?
Choline anaer gr: inactive; Choline anaer gr early: -0.96

(cont.)
What do the screens show for `Cc1cc(N2CCCC2)nc2ccc(NC(=O)CC(C)C)cc12`?
Choline anaer gr: inactive; Choline anaer gr early: -0.79

What do the screens show for `O=C(c1cnc2cc(-c3ccccc3)nn2c1)c1cc(Br)ccc1O`?
Choline anaer gr: inactive; Choline anaer gr early: -0.44

How did Cc1ccc(-c2ccc(N3CCCC3)nn2)cc1S(=O)(=O)N1CCOCC1 do in these assays?
Choline anaer gr: inactive; Choline anaer gr early: -0.19

What do the screens show for `Cc1cccc2cc3c(nc12)N(C(=O)NC1CCCCC1)CC3`?
Choline anaer gr: inactive; Choline anaer gr early: 0.81

How did O=C1CC(c2c(F)cccc2Cl)c2cnn(-c3nc4ccccc4s3)c2N1 (stereo unspecified) do in these assays?
Choline anaer gr: inactive; Choline anaer gr early: -0.94

What do the screens show for `COc1ccc(OC)c(S(=O)(=O)N2CCN=C2N2CCN(c3ccccc3OC)CC2)c1`?
Choline anaer gr: inactive; Choline anaer gr early: 0.69

What do the screens show for `CCc1ccc(-c2csc(Cc3nc(-c4ccc(F)cc4)no3)n2)cc1`?
Choline anaer gr: inactive; Choline anaer gr early: 0.46

How did O=C(NCCc1c[nH]c2ccccc12)c1csc(-c2ccncc2)n1 do in these assays?
Choline anaer gr: inactive; Choline anaer gr early: 1.1

Results for CC(NC(=O)Cn1cccc1C(=O)c1ccccc1)c1ccccc1 (stereo unspecified) ?
Choline anaer gr: inactive; Choline anaer gr early: 0.89

What do the screens show for `C=CCc1c(C)nn(-c2nc(CC(=O)Nc3nc(C)cs3)cs2)c1C`?
Choline anaer gr: inactive; Choline anaer gr early: 1.1

Results for Cc1ccc(CNS(=O)(=O)c2ccc(-c3cnc(C4CC4)o3)s2)o1 ?
Choline anaer gr: inactive; Choline anaer gr early: -0.31

Results for CCOc1ccccc1NC(=O)c1nnn(-c2ccc3noc(-c4ccccc4)c3c2)c1C ?
Choline anaer gr: inactive; Choline anaer gr early: 0.65

Results for CC(C)(C)c1ccc(C(=O)N2CCc3cc4ccccc4nc32)cc1 ?
Choline anaer gr: inactive; Choline anaer gr early: 0.05

Results for CCOC(=O)c1[nH]c(C)c(CCC(=O)N2CCCC(C(=O)NCCN(C)C)C2)c1C (stereo unspecified) ?
Choline anaer gr: inactive; Choline anaer gr early: -0.05

How did CC(=O)N1c2ccc(S(=O)(=O)Nc3cccc(-c4ccc5ccccc5n4)c3)cc2CC1C (stereo unspecified) do in these assays?
Choline anaer gr: inactive; Choline anaer gr early: 0.72

How did CCn1nc(C)c(CCN(C)C(=O)Nc2ccc(F)c(Cl)c2)c1C do in these assays?
Choline anaer gr: inactive; Choline anaer gr early: -1.1

How did O=C(c1cnc2sc3c(n2c1=O)CCC3)N1CCCC1 do in these assays?
Choline anaer gr: inactive; Choline anaer gr early: -0.56

How did COc1ccc(CCNC(=O)Cn2nc(-c3nc(-c4ccc(C)cc4)no3)c3ccccc32)cc1OC do in these assays?
Choline anaer gr: inactive; Choline anaer gr early: 0.35

How did Cc1nc(Nc2ccc(NS(=O)(=O)c3ccc(F)cc3)cc2)cc(N2CCCC2)n1 do in these assays?
Choline anaer gr: inactive; Choline anaer gr early: -1.4

What do the screens show for `O=C(c1ccc2c(c1)OCCO2)N(Cc1cccnc1)c1nc2c(Cl)cccc2s1`?
Choline anaer gr: inactive; Choline anaer gr early: 1.5

How did Cc1ccc2c(c1)-c1c(cnc3cc(-c4ccccc4)nn13)CO2 do in these assays?
Choline anaer gr: inactive; Choline anaer gr early: 0.94

Results for CN(C)c1ccc(CN(CC2CCCO2)C(=O)c2ccc(Cl)cc2)cc1 (stereo unspecified) ?
Choline anaer gr: inactive; Choline anaer gr early: 0.87

Results for CC(C)c1cc(C2CCCN2Cc2cn[nH]c2-c2cccs2)on1 (stereo unspecified) ?
Choline anaer gr: inactive; Choline anaer gr early: -0.41

What do the screens show for `CCN1CCN(CC2CCN(S(=O)(=O)Cc3c(F)cccc3Cl)CC2)CC1`?
Choline anaer gr: inactive; Choline anaer gr early: -0.37

Results for COc1ccc(NC(=O)Nc2nnc(SCC(=O)Nc3cc(OC)ccc3OC)s2)cc1 ?
Choline anaer gr: inactive; Choline anaer gr early: -1.6

Results for Cc1nc2nc(CNc3ccc(Br)cc3)[nH]n2c(=O)c1C ?
Choline anaer gr: inactive; Choline anaer gr early: -0.46

What do the screens show for `CCn1c(=O)c(-c2noc(C(=O)NC3CCCC3)n2)nn(-c2ccccc2)c1=O`?
Choline anaer gr: inactive; Choline anaer gr early: 0.25

What do the screens show for `CCCCn1cc(C2CC(=O)N(c3ccc(C)cc3)C2=O)c2ccccc21` (stereo unspecified)?
Choline anaer gr: inactive; Choline anaer gr early: -0.24

Results for COCc1c(Br)c(C)nc2sc3c(=O)n(-c4ccccc4C(=O)OC)nnc3c12 ?
Choline anaer gr: inactive; Choline anaer gr early: 0.61

What do the screens show for `Cc1cc(C)cc(NC(=O)Nc2ccccc2SCC2=NNC(=O)c3ccccc3O2)c1`?
Choline anaer gr: inactive; Choline anaer gr early: -0.5

How did Cc1cccc(Nc2c(-c3ccc(N(C)C)cc3)nc3ncccn23)c1 do in these assays?
Choline anaer gr: inactive; Choline anaer gr early: -0.11

What do the screens show for `COc1cc(CNCCSc2nnnn2C)ccc1OCC(=O)NC(C)(C)C`?
Choline anaer gr: inactive; Choline anaer gr early: -0.28

How did COc1ccc(CC(=O)N2CCc3c(c(C(=O)N4CCCC(C(=O)N5CCCC5)C4)nn3C)C2)cc1 (stereo unspecified) do in these assays?
Choline anaer gr: inactive; Choline anaer gr early: 0.22

What do the screens show for `Cc1ccc(S(=O)(=O)NCc2ccc3c(c2)CCN3C(=O)c2ccc(F)cc2)c(C)c1`?
Choline anaer gr: inactive; Choline anaer gr early: -1.1

How did COc1ccc(CNc2ccc(C(=O)N3CCc4ccccc43)nn2)cc1 do in these assays?
Choline anaer gr: active; Choline anaer gr early: -0.22*

How did CC(NC(=O)CCc1nc2sc3c(c2c(=O)[nH]1)CCCCC3)c1ccc2c(c1)OCCO2 (stereo unspecified) do in these assays?
Choline anaer gr: inactive; Choline anaer gr early: 0.79

What do the screens show for `O=C(NCc1ccc(Cl)cc1)c1ccc(NC(=O)N2CCSc3ncccc32)cc1`?
Choline anaer gr: inactive; Choline anaer gr early: -0.42

What do the screens show for `Cc1ccc2c(c1)Oc1cc(Cl)c(S(=O)(=O)N3CCSCC3)cc1C(=O)N2`?
Choline anaer gr: inactive; Choline anaer gr early: -0.11

What do the screens show for `CN(Cc1ccccc1)C(=O)C1CCN(S(=O)(=O)c2ccc3c(c2)NC(=O)CO3)CC1`?
Choline anaer gr: inactive; Choline anaer gr early: -0.64

Results for CCOc1ccccc1-c1nc(-c2ccc(NC(=O)Cc3ccccc3OC)cc2)no1 ?
Choline anaer gr: inactive; Choline anaer gr early: 0.16

How did O=C(CC1CCN(S(=O)(=O)c2ccccc2)CC1)N1CCN(c2ccccn2)CC1 do in these assays?
Choline anaer gr: inactive; Choline anaer gr early: -0.16

How did CC1=C(c2ccc(C)c(C)c2)S(=O)(=O)N(Cc2ccc(C(=O)NCCC(C)C)cc2)C1=O do in these assays?
Choline anaer gr: inactive; Choline anaer gr early: 0.25

Results for Cc1csc(-n2[nH]c(C)c(CCC(=O)Nc3cccc(Cl)c3)c2=O)n1 ?
Choline anaer gr: inactive; Choline anaer gr early: -0.27

Results for COc1ccc2c(c1)N(C[C@H](C)CN(C)C)c1ccccc1S2 ?
Choline anaer gr: inactive; Choline anaer gr early: 0.42

Results for CCN(CC)C(=O)c1ccc(-c2nc3cc(NS(=O)(=O)c4ccc(F)c(F)c4)ccc3n2C)cc1 ?
Choline anaer gr: inactive; Choline anaer gr early: 0.34

How did CC(C)Oc1cccc(-n2c(CCc3c[nH]c4ccc(Br)cc34)nc3ccccc3c2=O)c1 do in these assays?
Choline anaer gr: inactive; Choline anaer gr early: -0.44

How did C=CCNCc1ccc(-c2cccc(C(F)(F)F)c2)o1 do in these assays?
Choline anaer gr: inactive; Choline anaer gr early: -0.55

Results for CC(C)CCN1C(=O)c2cc3ccccc3n2CC1(C)C(=O)NC1CCCC1 (stereo unspecified) ?
Choline anaer gr: inactive; Choline anaer gr early: 0.19

How did Cc1ccc(-c2nc(C)cc(SCC(=O)Nc3cc(C)ccc3C)n2)cc1 do in these assays?
Choline anaer gr: inactive; Choline anaer gr early: 1.2
